# CSC inhib: cancer stem cell inhibition | cancer stem cell-like cells viability, luminescence | inhibition, % at 7.5 µM | hit rate 1.1% among 300,000 | AID 2717;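 active = mean at 75% or more and at least half the replicates too; inconclusive = mean and replicates disagree; tested in HMLE shEcad cells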;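 also: 0% = median of negative and 100% = median of positive control wells; the first replicate is given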
# Rce1 inhib: inhibitors of yeast Ras-converting enzyme. Q03530. yeast membranes, quenched prenylated peptide cleavage fluorescence. AID 2563. calls only. hit rate 0.27% among 290,000;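 active = fall in fluorescence gain of 50% or more versus controls, with final raw signal at or below 3038400; inconclusive = same 50% fall but final raw signal above 3038400; inactive = fall in fluorescence gain under 50%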;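 also: plate controls were neutral control wells for no effect and wells lacking membranes for full effect; tested at 10 µM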
# Yeast UUG start: modulators of start codon recognition fidelity in yeast; S. cerevisiae UUG-firefly luciferase reporter, luminescence/redox ratio; activity score, % at 18.7 µM; hit rate 0.13% among 350,000; AID 602363;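 active = replicate mean at a twofold rise or more, about +100% in these data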;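 also: firefly luciferase made from a UUG start codon reports start codon fidelity; reporter light over untreated wells divided by growth signal over untreated wells; some hits fall short of that in this replicate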
# eIF4H inh: inhibitors of RNA binding by human eIF4H; Q15056; eIF4H fluorescence polarization binding assay; inhibition, % at 35 µM; hit rate 0.94% among 290,000;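 active = 50% or more with normal probe brightness, or confirmed in later tests; inconclusive = above 50% with abnormal brightness, or retests that disagree; inactive = below 50% or failed in later tests; about a fifth of its hits are not listed in these tables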;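 also: calls also rest on retests at 20 µM and on dose response follow-up; 0% = protein and probe with vehicle and 100% = probe without protein; strong numbers were not always called active; many hits fall short of the cut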
# PABP polyA inh: blocks human PABP binding to poly(A) RNA | P11940 | fluorescence polarization | inhibition, % at 35 µM | hit rate 1% among 290,000 | AID 2014;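 active = 50% or more with normal probe brightness, or confirmed in later tests; inconclusive = above 50% with abnormal brightness, or retests that disagree; inactive = below 50% or failed in later tests; about a fifth of its hits are not listed in these tables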;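 also: calls also rest on retests at 20 µM and on dose response follow-up; controls were probe without protein and protein plus probe with vehicle; some compounds called inactive have numbers as strong as hits; many hits fall short of the cut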
# Target sequence (P11940 whole entry, looked up): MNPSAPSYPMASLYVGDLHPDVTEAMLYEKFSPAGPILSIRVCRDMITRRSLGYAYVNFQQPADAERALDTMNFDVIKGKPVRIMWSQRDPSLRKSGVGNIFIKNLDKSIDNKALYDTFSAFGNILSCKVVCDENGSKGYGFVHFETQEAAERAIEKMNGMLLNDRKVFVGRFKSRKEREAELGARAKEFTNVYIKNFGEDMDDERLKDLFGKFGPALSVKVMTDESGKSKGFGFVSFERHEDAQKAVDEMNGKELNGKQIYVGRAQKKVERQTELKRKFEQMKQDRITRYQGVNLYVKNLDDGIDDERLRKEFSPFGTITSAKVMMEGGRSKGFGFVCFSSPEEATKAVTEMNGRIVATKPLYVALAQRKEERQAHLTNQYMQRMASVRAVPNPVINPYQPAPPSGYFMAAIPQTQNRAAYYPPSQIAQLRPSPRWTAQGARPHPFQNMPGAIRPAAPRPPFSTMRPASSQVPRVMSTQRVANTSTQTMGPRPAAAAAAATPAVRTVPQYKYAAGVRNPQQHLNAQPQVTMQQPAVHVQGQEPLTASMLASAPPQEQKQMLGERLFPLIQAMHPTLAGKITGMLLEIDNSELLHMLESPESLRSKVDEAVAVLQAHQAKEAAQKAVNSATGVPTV
# HIV Env fusion: HIV envelope-mediated fusion inhibition; inhibition, % at 12.3 µM; hit rate 1.1% among 360,000; HeLa-JRFL Env/CEM21 cell fusion, luciferase; AID 651610;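 active = mean replicate inhibition score of at least 50 and every replicate individually at or above 50; inconclusive = only one of the two criteria met; inactive = mean below 50 and not all replicates reaching 50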;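 also: 0% = plate neutral controls and 100% = maraviroc near 300 nM; one replicate is shown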
# MT1-MMP act inh: MT1-MMP (human) activation inhibition. P50281. hit rate 0.061% among 360,000. HT1080 RFP-PRO-GFP cells, GFP/RFP ratio fluorescence, overnight; percent of plate control window, DMSO zero. GFP/RFP ratio change, % at 20 µM;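 active = GFP/RFP ratio change of at least 30% with cell ATP level not reduced by more than half and red fluorescence within 50% of control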; also: strong numbers were not always called active
#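 Assay system: HT1080 cells carrying an RFP-PRO-GFP reporter | Dosing: Single dose of 20 µM compound, 1% DMSO final | Incubation: Cells overnight before dosing, compound overnight, 37 °C, 5% CO2 | Evaluation: GFP/RFP fluorescence ratio | Control set: DMSO and RFP-L50D-GFP cell wells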
# eIF4H inh retest: further read-out of eIF4H inh, marked with its call; inhibition, %; compound at 20 µM; confirmation average;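 mean of two retest wells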
# PABP polyA inh retest: second read-out of PABP polyA inh, no call of its own (marks repeat the call); inhibition, %; compound at 20 µM; confirmation repeats;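 mean of two retest wells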
# MT1-MMP act inh RFP: recorded beside MT1-MMP act inh, whose call it bears; RFP signal change, %; measured here: RFP expression control read;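 0 = vehicle wells; hits needed this value within 50% of zero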
# * = called active by the depositor; i = inactive; ? = inconclusive; . = no result given.
SMILES,CSC inhib,Rce1 inhib,Yeast UUG start,eIF4H inh,PABP polyA inh,HIV Env fusion,MT1-MMP act inh,MT1-MMP act inh RFP,others
Cc1ccsc1C(=O)N1CCCC(CCC(=O)N2CCN(c3ccccn3)CC2)C1 (centres undefined),5,i,-12,-6,1,-2,4,-4,
CCCCOC(=O)c1ccc(NC(=O)CSCc2n[nH]c(=O)[nH]2)cc1,-8,.,4,1,-14,.,18,7,
Cc1nn(CC(=O)NCCc2ccccc2)c(=O)c2ccccc12,4,i,-9,1,-3,.,-1,2,
CCN1C(=NCCOC)N[C@@H](CCc2ccccc2)[C@H](C(=O)OC)[C@H]1C,3,i,4,.,.,10,8,5,
OCCN(CC(O)COc1ccccc1)CC(O)Cn1ccc2ccccc21 (centres undefined),10,.,2,5,2,-7,4,5,
COc1cc(C)c(S(=O)(=O)N2CCOCC2)c(C)c1C,5,i,-15,2,-3,-1,2,2,
O=C(Nc1nnc(C2CC2)o1)c1ccc(S(=O)(=O)N2CCCc3ccccc32)cc1,22,i,-31,17,9,26,-1,-4,
Cc1ccc2[nH]c(=O)c(CN3CCCCC3)c(-c3ccccc3)c2c1,-15,i,.,4,27,29,-4,0,
C[C@H](NC(=O)N1CCn2c1nc1ccccc12)C(=O)NCc1ccc(F)cc1,-10,i,-19,-6,5,20,8,5,
Cn1ccc(NC(=O)Nc2ccc(Cl)cc2)n1,-8,i,-14,-4,-6,-19,-3,-6,
COc1ccccc1OCC(=O)Nc1ccc2c(c1)OCCO2,-16,i,.,-9,-2,-49,2,1,
CN(CC(=O)Nc1ccccc1Br)C(=O)c1sccc1-c1ccccc1,.,.,-16,.,.,24,2,1,
Nc1nc(-c2ccc(Cl)cc2)cc(C(F)(F)F)n1,-1,i,11,-2,-2,-90,11,-4,
Nc1cccc(Oc2ccc3c(c2)C(=O)N(CC2CCCO2)C3=O)c1 (centres undefined),14,i,-15,-16,3,-15,4,-4,
Cc1nc(-c2ccccc2)sc1-c1n[nH]c(=S)n1C,-2,i,-24,-1,5,-146,0,-4,
Cc1ccccc1CN1CCSc2sccc2C1=O,-11,i,-2,-1,-7,12,0,-1,
CC1CCCN(C(=O)c2cc(-c3cccs3)nc3ccccc23)C1 (centres undefined),-8,.,.,.,.,-15,-5,-4,
COc1ccc(N(C(=O)Cn2nnc(-c3ccccc3F)n2)C(C(=O)NCC2CCCO2)c2ccc(Cl)cc2)cc1 (centres undefined),-1,i,.,-11,-7,5,0,3,
CCCN1CCC(NC(=O)C2CCN(C(C)=O)CC2)CC1,-6,i,2,6,3,-102,-3,-1,
O=C(NC(c1ccc(F)cc1)c1cnccn1)C1CCN(CCOc2ccc(Cl)cc2Cl)CC1 (centres undefined),.,.,-4,.,.,-18,-3,1,
CCCOc1ccc(C(=O)NNC(=S)NC(=O)c2ccccc2)cc1,47,i,-19,24,3,6,-1,-8,
CCOC(=O)/C(C#N)=C/c1ccc(N2CCCCC2)cc1,5,.,.,?,?,-39,-13,1,
N#Cc1ccc(N2CCOCC2)c([N+](=O)[O-])c1,-9,i,.,-12,25,-63,2,4,
CC1=NNC(=O)C1CCC(=O)N/N=C(\C)c1ccccc1 (centres undefined),-2,i,.,-5,-5,10,5,9,
Cc1cc(-n2c(SCc3ccccc3F)nc3n[nH]c(C)c3c2=N)ccc1Cl,64,i,-20,4,-3,-4,-9,-14,
S=C(NCc1ccccc1)NCc1ccccn1,-7,i,-25,-5,-6,-7,0,-1,
O=C(Cc1ccc(F)cc1)N1CCN=C1SCc1ccc([N+](=O)[O-])cc1,-20,i,.,-13,-6,42,7,-3,
COc1ccc(/C=C2\SC(=S)N(C(C)C(=O)NC3C=CS(=O)(=O)C3)C2=O)cc1 (centres undefined),-14,i,-17,8,6,5,-1,-2,
CCOC(=O)Cc1nnc(Nc2ccc(C)cc2)c2ccccc12,-4,i,-15,0,0,.,3,1,
CC(C)c1ccc(/C=C2\NC(=S)N(Cc3cccnc3)C2=O)cc1,-19,.,-2,-8,10,26,-4,-23,
CN1CN(C)C(c2ccncc2)=C1c1ccncc1,1,i,-13,9,1,6,0,4,
Nc1nonc1-n1nnc(C(=O)N/N=C/c2cc(Br)ccc2O)c1CSC1=NCCS1,108*,i,-2,5,4,.,7,0,
COc1ccc(N2CCN(C(=O)CCS(=O)(=O)c3ccc4c(c3)NC(=O)C(C)S4)CC2)cc1 (centres undefined),2,i,-9,-3,-1,3,-4,-16,
O=C(COC(=O)CCC1CCCC1)Nc1cc(S(=O)(=O)N2CCOCC2)ccc1Cl,.,.,-5,.,.,-13,0,2,
Cn1c(SCC(=O)Nc2ccc(NC(=O)c3ccccc3)cc2)nnc1-c1ccncc1,4,i,-9,-4,0,-18,-2,-4,
COc1cccc(/C=N/NC(=O)CNC(=O)COc2cccc(C)c2)c1O,60,i,.,4,-6,4,1,1,

# The final 3 entries of the section before come first, to join the parts.
SMILES,CSC inhib,Rce1 inhib,Yeast UUG start,eIF4H inh,PABP polyA inh,HIV Env fusion,MT1-MMP act inh,MT1-MMP act inh RFP,others
O=C(COC(=O)CCC1CCCC1)Nc1cc(S(=O)(=O)N2CCOCC2)ccc1Cl,.,.,-5,.,.,-13,0,2,
Cn1c(SCC(=O)Nc2ccc(NC(=O)c3ccccc3)cc2)nnc1-c1ccncc1,4,i,-9,-4,0,-18,-2,-4,
COc1cccc(/C=N/NC(=O)CNC(=O)COc2cccc(C)c2)c1O,60,i,.,4,-6,4,1,1,
COC(=O)c1nc(NC(=O)c2ccccc2Cl)n[nH]1,-17,i,-3,2,16,-24,-2,6,
COc1ccc(CCNC(=O)c2ccc3c(c2)NC(=O)CS3)cc1OC,-17,i,2,-20,1,-9,-3,-3,
COc1ccc2c(c1)OC1(C)CC2C(C(=O)c2ccccc2OC)C(=O)N1 (centres undefined),-2,i,-10,-1,93,-8,0,4,eIF4H inh retest=10;PABP polyA inh retest=-6
CCN(CC)C(=O)[C@H]1CC(CC(=O)NC(C)(C)C)C(=O)N2CCc3c([nH]c4ccccc34)[C@]12C (some centres undefined),-15,.,14,.,.,-305,-3,-1,
COc1ccc(NC(=O)CSc2nc3ncccc3[nH]2)cc1OC,-19,i,-14,-3,-8,-30,-4,-3,
CSc1oc(-c2ccco2)nc1S(=O)(=O)c1ccc(F)cc1,1,i,4,2,-6,8,-3,1,
COc1ccc(S(=O)Cc2ccc(C(=O)NCc3cccc(OC)c3)o2)cc1 (centres undefined),-2,i,0,-13,2,11,2,2,
Cc1nc2[nH]c(=S)n(C)c(=O)c2nc1C,-3,i,.,0,-3,5,-1,1,
CC(=O)N1CCN(c2ccccc2NC(=O)c2cc(Br)ccc2Cl)CC1,-15,i,3,2,-2,.,-8,-5,
COc1ccc(C2=Nc3ccccc3NC(=O)C2N(Cc2ccccc2)C(=O)C2=NNC(=O)CC2)cc1 (centres undefined),.,.,-23,.,.,-8,2,2,
CCOC(=O)Cc1csc(SCC(=O)Nc2cc(Cl)ccc2Oc2ccccc2)n1,0,i,.,-7,-14,.,8,6,
CCN1CCN(c2ccc(S(=O)(=O)N3CCCCC3)cc2NC(=O)COc2cc(C)ccc2Cl)CC1,-4,i,4,.,.,.,-2,-1,
C=CCn1cc(C(=O)N2CCN(CC)CC2)c(=O)c2cc(S(=O)(=O)N(CC)CC)ccc21,0,i,-7,-13,-7,0,2,1,
Cc1ccc(CN2CCN(Cc3cc(=O)c4ccccc4[nH]3)CC2CCO)o1 (centres undefined),-3,i,.,58*,25,2,-3,3,eIF4H inh retest=52*;PABP polyA inh retest=45
CC1(C)CC(C(CC(=O)N2CCCC2)Cc2ccccc2)CCO1 (centres undefined),9,i,0,11,-5,6,-4,3,
COc1ccc(C2CC(c3cccs3)=NN2C(=O)c2ccccc2)cc1OC (centres undefined),-2,i,7,1,-15,12,1,-2,
CC(=O)Nc1ccc(NC(=O)C(C)OC(=O)c2ccc(S(=O)(=O)N3CCCCC3)cc2)cc1 (centres undefined),-7,.,-27,.,.,.,-6,-2,
CCCC(C(=O)NC1=NCCS1)c1ccccc1 (centres undefined),.,i,.,-8,-6,4,0,0,
O=C(O)c1cccc(NS(=O)(=O)c2ccc(-c3ccc(S(=O)(=O)Nc4cccc(C(=O)O)c4)cc3)cc2)c1,-12,i,.,4,1,-4,-2,-1,
COc1cc(OC)c2c(c1C(CCN1CCOCC1)c1ccc(N(C)C)cc1)OC(=O)CC2c1ccc(N(C)C)cc1 (centres undefined),-12,i,-9,6,-4,13,-3,-7,
Cc1ccc(OC(=S)Nc2ccc(F)cc2)cc1,-2,i,-18,9,6,-28,2,5,
CCOc1ccccc1N=Nc1c(C)[nH]n(-c2ccccc2)c1=O,11,i,-20,-10,15,.,9,3,
COCCCn1c(CCC(=O)O)ccc1-c1ccc(F)cc1,-5,i,-5,0,3,.,3,5,
COc1cc(OC)cc(C(=O)NC2=NCCS2)c1,-4,i,-12,2,3,-48,-4,-4,
Cc1c(NC(=S)N/N=C/c2ccc(Br)cc2)c(=O)n(-c2ccccc2)n1C,-13,i,.,0,10,9,-1,3,
Cc1cc(C(=O)CCC(=O)N(C)CC(=O)Nc2ccc(OC(F)(F)F)cc2)c(C)s1,.,.,-9,.,.,9,-3,-1,
CC(C)CNC(=O)CCc1nc(-c2ccccc2)no1,-7,i,-3,-5,-2,-1,1,0,
CCc1cc2cccc(C)c2nc1SCC(=O)NC1CCCC1,19,i,-3,5,6,4,-4,-4,
CCOc1ccc(/C=N/NC(=O)NC23CC4CC(CC(C4)C2)C3)cc1O,14,i,-7,-9,5,.,8,3,
CCOC(=O)c1ncn2c1C(=O)OC2(C)C,-1,i,-4,7,3,-37,-1,0,
Cc1nc2c(-c3ccc(F)cc3)c(C)nn2c(C)c1CCC(=O)N1CCOCC1,-14,i,-15,-2,2,5,3,-2,
CSc1ccccc1NC(=O)CSCc1ccc(Br)cc1,-9,i,-1,2,-1,33,-5,-4,
CC(=O)Nc1ccc(SCC(=O)OCC(=O)NC(=O)NCCC(C)C)cc1,-7,i,.,2,-14,-10,0,2,
Cc1cccc(NC(=O)c2cccc(S(=O)(=O)N3CCc4ccccc4C3)c2)n1,9,i,-3,.,.,8,-3,0,
Cc1cc(C(=O)CN2C(=O)c3ccccc3C2=O)c(C)n1C1CC1,-8,i,-14,0,4,-23,-5,0,
CC(Oc1ccc2c(-c3ccccc3)cc(=O)oc2c1)C(=O)NC(Cc1c[nH]c2ccc(O)cc12)C(=O)O (centres undefined),-1,.,5,86*,58*,.,-4,-1,
N/C(=N\OC(=O)/C=C/c1ccccc1)c1cccnc1,11,i,.,-5,0,-39,3,-2,
NC(=O)C(c1ccc(F)cc1)c1ccc(C(=O)c2ccccc2)cc1 (centres undefined),13,i,-1,-4,3,23,2,-9,
CC(C)(C)c1nc(N)nc(=O)[nH]1,-7,i,.,15,5,-17,-1,-1,
CC1(C)CC(NC(=O)COc2ccc([N+](=O)[O-])cc2)CC(C)(C)N1,-5,.,-10,-6,-17,-12,1,5,
Cc1cc(NS(=O)(=O)c2ccc(NS(=O)(=O)c3ccc(Br)cc3)cc2)no1,-2,i,0,2,11,9,-4,0,
CCCCCN=C(C)c1c(O)c2ccccc2oc1=O,8,i,-10,6,5,.,5,-3,
